High-throughput results as filed in PubChem.
VDR inhibitor = vitamin D3 receptor (human) inhibition. VDR-SRC2-3 peptide fluorescence polarization, 2 h. actives 0.93% (n = 400,000). AID 504847. Potency, µM, without a hit: max response, negative = inhibition, usual class: inhibitors; active = well fitted inhibition curve with a large enough effect; inconclusive = small, poorly fitted or top-dose-only effect, or another doubt; inactive = no such curve, though single readings can be large or run the other way; also: series mostly up to about 120 µM
Target sequence (P11473 whole entry, looked up): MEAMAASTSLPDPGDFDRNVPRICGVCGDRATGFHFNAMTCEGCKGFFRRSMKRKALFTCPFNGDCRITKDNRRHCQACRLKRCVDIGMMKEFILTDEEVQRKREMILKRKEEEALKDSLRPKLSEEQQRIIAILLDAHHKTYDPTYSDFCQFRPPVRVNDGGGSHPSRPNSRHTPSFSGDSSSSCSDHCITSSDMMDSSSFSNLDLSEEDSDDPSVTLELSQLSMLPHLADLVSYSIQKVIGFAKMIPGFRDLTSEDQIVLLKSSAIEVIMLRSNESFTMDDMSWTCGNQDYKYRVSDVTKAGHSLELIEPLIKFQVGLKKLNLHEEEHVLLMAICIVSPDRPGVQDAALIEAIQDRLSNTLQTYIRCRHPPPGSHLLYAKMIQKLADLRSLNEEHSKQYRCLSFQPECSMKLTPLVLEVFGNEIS
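Two reagent solutions held at 4 deg C in the dark were dispensed, compounds pinned at 23 nl, and the mixture incubated 2 h at room temperature. Read-out: fluorescence polarization of VDR–SRC2-3 peptide binding.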
Starred values were filed as active, the others as inactive; ? = inconclusive; & = joins results of further samples. % is scaled to controls: 0 for no effect and ±100 for the full control effect; potency is read from the fitted curve at half-maximal effect. This is a subset. The share of hits here may be higher or lower than overall.

SMILES	VDR inhibitor
COCCCNC(=O)C1CCN(C(=O)c2ccc(-n3ccc4ccccc43)s2)CC1	9%
CC(=O)c1c(C)[nH]c(-c2ccccc2)c1C	-2%
Nc1nnc(CC(=O)N/N=C\c2ccc(-c3cccc(Cl)c3)o2)s1	-9%
COc1ccc(CNC(=O)C2CCCN2S(=O)(=O)c2ccc(C)cc2)cc1 (stereo not drawn)	-4%
Cc1c(NS(=O)(=O)c2ccccc2F)c(=O)n(-c2ccccc2)n1C	3%
OCCN1CCN(C(=S)Nc2ccc(Oc3ccccc3)cc2)CC1	25%
Cc1ccc(S(=O)(=O)NC(C)(C)CN2CCCCC2)cc1	?
COc1ccc(CCNS(=O)(=O)c2ccc(C3CNC(=O)C3)cc2)cc1OC (stereo not drawn)	4%
O=C(OC1CCOC1=O)C1CCN(S(=O)(=O)c2ccc(Cl)c(C(F)(F)F)c2)CC1 (stereo not drawn)	13%
Cn1c(=O)n(C)c2cc(NS(=O)(=O)c3ccc(Br)cc3)c(NCc3ccccc3)cc21	-13%
COc1ccccc1C(=O)NC(=O)COC(=O)CN1C(=O)NC2(CCCCC2C)C1=O (stereo not drawn)	-4%
COCc1cc(C)nc(SCC[N+](C)(C)CC(=O)c2ccccc2)c1C#N	-7%
CC(=O)c1c(C)[nH]c(C(=O)Nc2ccc(C)c(C)c2)c1C	10%
COc1ccc(-n2c(C)cc(/C=C3\C(=O)NN(c4ccccc4)C3=O)c2C)cc1	-2%
CC(C)(C)N1CCC1CN (stereo not drawn)	5%
CC1CN(C(C)C)C(C)CC1OC(=O)c1ccccc1 (stereo not drawn)	-7%
COc1ccccc1CC(=O)Nc1ccc2c(c1)C(=O)NC2=O	-5%
CCOC(=O)c1c(C2COc3ccccc3O2)csc1NC(=O)c1ccccc1 (stereo not drawn)	-21%
Cc1cc(C)n(CCCNC(=O)c2ccc(C)c(S(=O)(=O)N3CCOCC3)c2)n1	-27%
Nc1cc(=O)[nH]c(SCC(=O)N2CCCC2)n1	4%
CC(C)C[C@@H](CC(=O)N[C@@H](CCC(=O)O)CC(=O)O)NC(=O)[C@@H]1CCCC[C@H]1NC(=O)C[C@H](CCCN)NC(=O)C[C@H](Cc1ccccc1)NC(=O)[C@@H]1CCCC[C@H]1N	2%
CC(C)OCCCNC(=O)C(=O)Nc1c2c(nn1-c1ccccc1)CS(=O)(=O)C2	-5%
Cn1c(=O)[nH]c(=O)c2c1nc(N1CCCCCC1)n2CCSc1nc2ccccc2o1	-4%
COc1cc(NC(=O)c2ccco2)c(C(=O)OCC(=O)Nc2ncc(Cl)cc2Cl)cc1OC	-7%
O=C(COC(=O)/C=C/c1ccccc1Cl)NCc1ccco1	-10%
N#Cc1ccc(CSc2nnc(-c3ccncc3)o2)cc1	-6%
COc1ccc(CC(=O)Nc2ccc(C(=O)Nc3ccccc3C(=O)O)cc2)cc1OC	-4%
CC(c1ccncn1)N(C)C(=O)c1ccc2oc(Cc3ccccc3)nc2c1 (stereo not drawn)	2%
CCOC(=O)CSc1nc(-c2ccc(Cl)cc2)cc(C(F)(F)F)c1C#N	-26%
CCn1cc(Br)c(C(=O)Nc2ccc(Cl)cc2Cl)n1	0%

In another format: entries from further up.
molecule | VDR inhibitor
OCCN1CCN(C(=S)Nc2ccc(Oc3ccccc3)cc2)CC1 | 25%
COc1ccc(CCNS(=O)(=O)c2ccc(C3CNC(=O)C3)cc2)cc1OC (stereo not drawn) | 4%

New compounds follow:
SMILES	VDR inhibitor
CSc1nc2ccccc2c(=O)n1C1CCCCC1	-8%
CCOc1ccc(C(=O)c2cnc3ccccc3c2N2CCN(CC)CC2)cc1	1%
CC(C)NC(=O)C1CCCN(S(=O)(=O)c2cccs2)C1 (stereo not drawn)	-3%
N#Cc1ccccc1NC(=O)COc1ccc2c(c1)OCO2	-4%
O=C1CC(N2CCN(c3ccc(O)cc3)CC2)C(=O)N1Cc1cccs1 (stereo not drawn)	-12%
O=C(NC1CCCCCC1)C1CCN(C(=O)N2CCOc3ccc(Cl)cc32)CC1	2%
COc1ccc(N2CCN(C(c3ccccc3OC)c3nnnn3Cc3ccco3)CC2)cc1 (stereo not drawn)	-7%
Cc1ccsc1-c1nc(CSCC(=O)NCCN2CCCC2)c(C)o1	1%
Cc1cccc(N2CCN(S(=O)(=O)c3cccc4nonc34)CC2)c1C	-20%
CCOC(=O)c1cnn(CCOC(=O)c2ccc(F)cc2)c1NC(=O)c1ccc(F)cc1	-3%
O=C(NC12CC3CC(CC(C3)C1)C2)c1ccc(Br)o1	1%
COc1ccccc1CNC(=O)C1CCN(C2=NS(=O)(=O)C(c3ccc(C)c(C)c3)=C2C)CC1	16%
COc1cc(C)c(C(=O)CC(=O)c2c(C)cc(OC)cc2C)c(C)c1	-8%
COc1ccc2c(c1)c1c(c(=O)n(-c3ccc(C)cc3)c(=O)n1CC(=O)NCc1ccc(C)cc1)n2C	14%
CCN1CCN(CCNC(=O)c2ccc(/C=C3/Sc4ccccc4N(Cc4cccc(C)c4)C3=O)cc2)CC1	22%
COCCCNC(=O)c1ccc(-c2nc(CS(=O)(=O)c3ccc(C)cc3)c(C)o2)cc1	16%
NC(=O)c1ccc(NC(=O)CCN2C(=O)c3ccccc3C2=O)cc1	-9%
CCn1cc(C(=O)O)c(=O)c2ccc(C)nc21	-1%&-13%&10%&1%
CCOc1ccc(CN2CCN(C(=O)c3cccc4ccccc34)CC2)cc1	0%
COc1ccc(Oc2ncnc3c2oc2ccc(Br)cc23)cc1	1%
Cc1nnc2ccc(-c3cccc(NS(=O)(=O)c4cc(F)ccc4F)c3)nn12	-3%
COc1ccc(CNC(=O)CNS(=O)(=O)c2ccc(Cl)cc2)cc1	3%
Cc1c(-c2ccccc2)[nH]n2c(=O)c3c(nc12)CCCC3	3%
O=S(=O)(c1ccc(F)cc1)N1CCC(N2CCCC2)CC1	3%
COC(=O)C1(C)CCC(C(=O)Nc2ccccc2)C1(C)C (stereo not drawn)	-1%
O=C(N/N=C/c1cc(Cl)cc([N+](=O)[O-])c1O)C(O)(c1ccccc1)c1ccccc1	-2%
Cc1cccc(NC(=O)c2n[nH]c([N+](=O)[O-])c2Br)c1C	-5%
C[C@@H]1CCC[C@@]2(O[C@@H](CCO)C[C@@H](O)[C@@H]2O)O1	-4%
CCOC(=O)C1C(=O)C=C(c2cccc(NS(C)(=O)=O)c2)CC1c1ccco1 (stereo not drawn)	-6%
CC(=O)Oc1ccc(C(c2ccc(OC(C)=O)cc2)c2ccccn2)cc1	-5%&-1%&-1%
OC[C@H]1O[C@@H]2O[C@H]3[C@H](O)[C@@H](O)[C@@H](O[C@H]4[C@H](O)[C@@H](O)[C@@H](O[C@H]5[C@H](O)[C@@H](O)[C@@H](O[C@H]6[C@H](O)[C@@H](O)[C@@H](O[C@H]7[C@H](O)[C@@H](O)[C@@H](O[C@H]1[C@H](O)[C@H]2O)O[C@@H]7CO)O[C@@H]6CO)O[C@@H]5CO)O[C@@H]4CO)O[C@@H]3CO	-12%&13%
COc1ccc(CNC(=O)CCS(=O)(=O)c2ccc3c(c2)CC(C)N3C(=O)C2CC2)cc1 (stereo not drawn)	-6%&6%
C=CCn1c(COc2ccc(CC)cc2)nnc1SCC(=O)N(C)C1CCS(=O)(=O)C1 (stereo not drawn)	11%
CN(C)CCN1C(=O)C2C3C=CC(C3)C2C1=O (stereo not drawn)	-4%
Cc1[nH]c2ccccc2c1C(=O)CSc1nc2ncc(Cl)cc2[nH]1	-6%
CCc1ccccc1N/C(=N\S(=O)(=O)c1ccccc1)C(F)(F)F	10%
Cc1ccc(NC(=O)CS(=O)CC(=O)Nc2ccc3c(c2)OCO3)cc1Cl (stereo not drawn)	-7%
CN1CCN(S(=O)(=O)c2ccc(Sc3nc4ccccc4[nH]3)c3nsnc23)CC1	16%
Cc1ccc(NC(=O)c2cccs2)cc1NC(=O)c1cccc(F)c1	-1%
CC1CCN(S(=O)(=O)c2ccc(NC(=O)Cn3nnc(-c4ccccc4)n3)cc2)CC1	-1%
Cn1cccc1Cc1nnc(SCC(N)=O)n1-c1ccc(F)cc1	-15%
CC1(CCc2ccccc2)NC(=O)N(CC(=O)Nc2ccccc2C#N)C1=O (stereo not drawn)	-14%
CCOC(=O)NC(=O)c1cn(Nc2ncc(Cl)cc2C(F)(F)F)c(=O)[nH]c1=O	-6%
Cc1nn(-c2ccccc2)c(Cl)c1C(=O)NCc1ccccc1F	5%
O=S(=O)(c1ccc(F)cc1)N1CCCC1	-12%
O=C(CSc1cccc[n+]1[O-])c1cccs1	7%
CCC(Cc1ccccc1)NC(=O)CN(C)S(=O)(=O)c1ccc2c(c1)c(=O)n(C)c(=O)n2C (stereo not drawn)	-26%
COc1ccc(C2CC(c3ccc(OC)c(OC)c3)=NN2C(=O)c2ccccc2)cc1 (stereo not drawn)	2%
COc1ccccc1-c1cc(NCc2cccnc2)ncn1	10%
O=[N+]([O-])c1ccc(N2CCCC2)cc1N1CCCC1	-17%
CCCCOc1ccccc1NC(=O)c1ccc(=O)[nH]c1	-21%
Cc1cc(C)nc(N2CCC(C(=O)Nc3ccc(Oc4ccccc4)cc3)CC2)n1	6%
CC(C)C/C=C1\CCc2c([nH]c3ccccc23)C1=O	1%
Cc1c(C(=O)NCc2ccc3c(c2)OCO3)oc2ccc(S(=O)(=O)N3CCCC3)cc12	5%
Cc1noc(C)c1CSc1ccccc1C(=O)N(C)CC(=O)Nc1cccc(F)c1	6%
Cc1nc2c(c(C)nn2-c2ccccc2)c(C)c1Cl	-4%
COC(=O)c1ccc(OCC(O)CN(CCO)CCO)cc1 (stereo not drawn)	8%
O=C(Nc1ccc([N+](=O)[O-])cc1)c1cc(Cl)sc1Cl	-1%
COCCOC(=O)C1=C(C)Nc2cc(=O)[nH]c(=O)n2C1c1cccc([N+](=O)[O-])c1 (stereo not drawn)	-13%
CCCNc1nc2c(c(=O)n(C)c(=O)n2C)n1Cc1ccc(F)cc1	-8%

New compounds follow
SMILES	VDR inhibitor
CCCCS(=O)(=O)CC(O)CSc1nc(-c2ccc(C)cc2)cc(-c2ccccc2)c1C#N (stereo not drawn)	-29%
FC(F)(F)c1cccc(-c2ccn3ncnc3n2)c1	17%
O=C(Nc1cccc(Cl)c1)C1CCCN(c2cnccn2)C1 (stereo not drawn)	-11%
Cc1noc2ncnc(Oc3ccc4ccccc4c3)c12	-7%
COc1ccc(S(=O)(=O)N2CCN(CCc3ccccc3)CC2)c(OC)c1	-7%
CCO[C@H]1OC(C(=O)N2CCN(Cc3ccc4c(c3)OCO4)CC2)=C[C@@H](C(C)(C)C)[C@@H]1CCCO	?
O=C(/C=C/c1ccccc1)N1CCN(S(=O)(=O)c2ccc(F)cc2)CC1	4%
Cc1occc1C(=O)N/N=C/c1cccc2ccccc12	-26%
S=c1nccc(-c2cc(Cl)sc2Cl)[nH]1	-22%
Cc1c(C(=O)NCc2ccc(F)cc2)oc2ccc(S(=O)(=O)N3CCOCC3)cc12	2%
CC(C)(C)c1ccc2oc(=O)cc(-c3cccc(-c4ccc(C(F)(F)F)cc4)c3)c2c1	3%
Cc1cc(N)n2nc(C(F)(F)F)nc2n1	-14%
O=C1CCN(CCc2ccccc2)CCN1[C@H](COc1ccccc1)c1ccccc1	-12%
Cc1ccc2c(c1)C(=O)C(=O)N2Cc1ccc(F)cc1	?
COc1ccc(CNC(=O)C2CCC(CNS(=O)(=O)c3ccc4c(c3)CCCC(=O)N4)CC2)cc1 (stereo not drawn)	14%
COc1cc2c3nnc(-c4ccccc4)c-3cn(Cc3ccc(F)cc3)c2cc1OC	13%
COCC(C)n1c(C)cc(C(=O)CSc2nnc(-c3ccco3)o2)c1C (stereo not drawn)	4%
O=C(/C=C/c1ccc(O)cc1)c1cccs1	?
Nc1nc(N)c(S(=O)(=O)c2ccccc2)c(Nc2ccccc2)n1	2%
O=C1CCCc2ccccc2N1Cc1ccccc1	2%
COc1ccc(C(=O)/C=C/c2cn(CC(O)CN(CC(C)C)CC(C)C)c3ccccc23)cc1OC (stereo not drawn)	-1%
CC(C)N(C(=O)C(=O)c1cccn1-c1ccccc1C#N)C(C)C	-11%
CN(C)S(=O)(=O)c1ccc(N2CCCC2)c(C(=O)Nc2cccc(F)c2)c1	-14%
CN(Cc1ccccc1)S(=O)(=O)c1ccc(Cl)c(C(=O)OCC(N)=O)c1	9%

Some of these compounds in order of molar mass, highest first:
SMILES	VDR inhibitor
COc1ccc(CNC(=O)C2CCC(CNS(=O)(=O)c3ccc4c(c3)CCCC(=O)N4)CC2)cc1 (stereo not drawn)	14%
COc1ccc(C(=O)/C=C/c2cn(CC(O)CN(CC(C)C)CC(C)C)c3ccccc23)cc1OC (stereo not drawn)	-1%
CCO[C@H]1OC(C(=O)N2CCN(Cc3ccc4c(c3)OCO4)CC2)=C[C@@H](C(C)(C)C)[C@@H]1CCCO	?
Cc1c(C(=O)NCc2ccc(F)cc2)oc2ccc(S(=O)(=O)N3CCOCC3)cc12	2%
CC(C)(C)c1ccc2oc(=O)cc(-c3cccc(-c4ccc(C(F)(F)F)cc4)c3)c2c1	3%
O=C1CCN(CCc2ccccc2)CCN1[C@H](COc1ccccc1)c1ccccc1	-12%
COc1cc2c3nnc(-c4ccccc4)c-3cn(Cc3ccc(F)cc3)c2cc1OC	13%
CN(Cc1ccccc1)S(=O)(=O)c1ccc(Cl)c(C(=O)OCC(N)=O)c1	9%
COc1ccc(S(=O)(=O)N2CCN(CCc3ccccc3)CC2)c(OC)c1	-7%
COCC(C)n1c(C)cc(C(=O)CSc2nnc(-c3ccco3)o2)c1C (stereo not drawn)	4%
O=C(/C=C/c1ccccc1)N1CCN(S(=O)(=O)c2ccc(F)cc2)CC1	4%
Nc1nc(N)c(S(=O)(=O)c2ccccc2)c(Nc2ccccc2)n1	2%
O=C(Nc1cccc(Cl)c1)C1CCCN(c2cnccn2)C1 (stereo not drawn)	-11%
Cc1occc1C(=O)N/N=C/c1cccc2ccccc12	-26%
Cc1ccc2c(c1)C(=O)C(=O)N2Cc1ccc(F)cc1	?
S=c1nccc(-c2cc(Cl)sc2Cl)[nH]1	-22%
O=C1CCCc2ccccc2N1Cc1ccccc1	2%
O=C(/C=C/c1ccc(O)cc1)c1cccs1	?
Cc1cc(N)n2nc(C(F)(F)F)nc2n1	-14%
